Screening results: PubChem BioAssay, several laboratories
YopH PTP inh = blocks Yersinia enterocolitica YopH tyrosine phosphatase. fluorescence Ex485/Em525. inhibition, %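 (about 10 µM by stock and volumes)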. actives 0.16% (n = 140,000);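 active = inhibition of 50% or more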;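 also: controls were vehicle for no effect and minimum signal wells for full effect; inactives centre near -20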
RecA splice inh = inhibitors of M. tuberculosis RecA intein splicing. cell-free RecA intein splicing, fluorescence. inhibition, %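 (about 9 µM by stock and volumes)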. actives 0.75% (n = 290,000). AID 2221; in the data active = inhibition above about 30%; inconclusive = no clear call, values can overlap the other calls;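 also: 0% = vehicle wells and 100% = reference inhibitor control wells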
Target sequence (P9WHJ3 whole entry, looked up, canonical isoform): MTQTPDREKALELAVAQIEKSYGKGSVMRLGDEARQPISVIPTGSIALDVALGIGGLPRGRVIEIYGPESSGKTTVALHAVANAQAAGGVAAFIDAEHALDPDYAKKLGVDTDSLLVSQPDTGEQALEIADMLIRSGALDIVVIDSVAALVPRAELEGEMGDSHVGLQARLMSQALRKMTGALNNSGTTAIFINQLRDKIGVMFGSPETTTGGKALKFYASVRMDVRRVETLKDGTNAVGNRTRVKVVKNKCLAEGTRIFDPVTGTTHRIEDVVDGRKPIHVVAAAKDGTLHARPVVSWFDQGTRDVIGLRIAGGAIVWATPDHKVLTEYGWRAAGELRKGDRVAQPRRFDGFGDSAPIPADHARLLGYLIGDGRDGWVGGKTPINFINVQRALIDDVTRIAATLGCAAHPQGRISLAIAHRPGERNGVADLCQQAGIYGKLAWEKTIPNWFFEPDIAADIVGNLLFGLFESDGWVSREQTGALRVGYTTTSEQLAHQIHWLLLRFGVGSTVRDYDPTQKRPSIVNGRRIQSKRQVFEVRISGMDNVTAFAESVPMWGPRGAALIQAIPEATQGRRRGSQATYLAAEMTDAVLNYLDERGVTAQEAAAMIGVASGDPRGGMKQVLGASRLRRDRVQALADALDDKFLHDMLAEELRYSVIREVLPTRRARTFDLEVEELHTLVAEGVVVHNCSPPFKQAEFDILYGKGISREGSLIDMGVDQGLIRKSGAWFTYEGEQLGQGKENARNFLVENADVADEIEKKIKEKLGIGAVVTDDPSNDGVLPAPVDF
Mtb bLac sens = beta-lactam sensitization of Mtb H37Rv; M. tuberculosis H37Rv growth with meropenem, percent inhibition; hits of this screen are not shown here; inhibition, % at 25 µM; actives 0.27% (n = 330,000); AID 434955;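 active = about 74% or more and at least 40 points above the plate without the antibiotic, then above 30% in a dose series; inconclusive = first-round hits that could not be retested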;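 also: growth measured after seven days incubation then overnight dye step; 0% = bacteria only wells and 100% = bacteria with antibiotic; twin plates without the antibiotic show which effects depend on it; some results filed as inactive read as strong as hits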
Arbovirus inh = arbovirus infection inhibition; actives 0.37% (n = 200,000); AID 1251; arbovirus infection cell-based antiviral screen; inhibition, % at 10 µM;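 active = inhibition from about 30%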;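 also: bluetongue infection of BSR cells; cell survival read as ATP light after 72 h; 0% = infected wells without compound and 100% = uninfected wells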
Mtb growth = M. tuberculosis H37Rv growth inhibitors, H37Rv strain (AID 1626); inhibition, % at 10 µM; hits with a dose series show IC50 in µM; actives 0.95% (n = 220,000); M. tuberculosis H37Rv growth inhibition; higher % means a stronger effect;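 active = confirmed in a dose series; inconclusive = inhibition above 80% but not taken into the dose series; inactive = below 80% or under 30% at every dose of the series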;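 also: bacteria incubated seven days before Alamar blue readout; 0% = bacteria only wells and 100% = bacteria with antibiotic wells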
Arbovirus inh repeat = further read-out of Arbovirus inh, marked with its call; inhibition, %; measured here: 10K subset replicate screen; many hits read low in the repeat;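 first of two repeat runs on a subset; 0% = infected and 100% = uninfected wells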
The depositor's hits bear a star; ? = inconclusive; . = not tested or not shown.

SMILES	YopH PTP inh	RecA splice inh	Mtb bLac sens	Arbovirus inh	Mtb growth	others
CC(C)(C)c1ccc(OCC(=O)N(Cc2cccs2)C2CCS(=O)(=O)C2)cc1 (configuration not stated)	.	1.4	0	.	.
O=C(CSc1nnc(CNC(=O)c2cccs2)o1)NC1CCCCC1	-5	0.1	-9	-5	-8%
COc1ccc(-c2cn3cccnc3n2)cc1NC(=O)C(C)Oc1ccccc1 (configuration not stated)	.	-0.5	21	.	.
CCn1c(C(C)NC(C)=O)nc2ccccc21 (configuration not stated)	-30	4.1	-7	1	-1%	Arbovirus inh repeat=0
CCc1nnc(NC(=O)CSc2nnnn2C)s1	0	1.3	2	1	-8%
O=C(Nc1ccc(OC(=O)c2ccncc2)cc1)c1ccncc1	-36	3.0	0	-4	-10%
O=c1[nH]c(C2CCN(S(=O)(=O)c3ccccc3)CC2)nc2c1nnn2Cc1c(F)cccc1Cl	.	-3.1	-3	.	.
Cc1ccc(Cl)cc1NC(=O)CSC(N)=O	7	-1.2	-13	6	-9%
C=CCN1C(=O)c2ccccc2Sc2ccc(C(=O)NC(C)C)cc21	.	0.2	-3	.	.
O=C(COC(=O)c1ccccc1C(=O)c1ccccc1)Nc1cccc([N+](=O)[O-])c1	-19	13	-6	4	0%
FC(F)(F)c1ccc(CN2C[C@@H]3C(c4ccccc4)C4(c5ccccc5)CC3(C4)[C@H]2c2ccccc2)cc1 (some centres not stated)	.	6.8	.	.	-13%
O=C(O)CC1SC(=Nc2ccc(O)cc2)NC1=O (configuration not stated)	.	-4.5	4	22	-2%
COc1ccc(Cn2nnnc2CN2CCCCCC2)cc1	.	.	1	-3	5%
Cn1c(CSc2nc3ccccc3s2)nnc1SCC(=O)NCc1cccnc1	-18	2.7	-4	4	-3%
CC(C)(C)OC(=O)N[C@@H](Cc1ccccc1)C(=O)N[C@@H](CO)[C@H](O)[C@@H]1C[C@@H]1C(=O)NC1CC1	.	-11	-9	.	.
CCOC(=O)c1c(NC(=O)Nc2ccc(F)cc2)sc2c1CCN(C)C2	.	-3.1	5	.	-4%
CCOC(=O)c1c(C)[nH]c2ccc(O)cc12	-17	-4.3	2	-11	-9%
O=C(NCc1ccco1)C(c1ccc(F)cc1)N(Cc1cccnc1)C(=O)Cn1nnc2ccccc21 (configuration not stated)	-28	-1.4	-8	3	-2%
Cc1cc(C)cc(NC(=S)N(Cc2cccc(Br)c2)CC2CCC(C(=O)O)CC2)c1 (configuration not stated)	.	-0.3	9	15	-1%
CCOC(=O)c1ccc(CNC(=O)C(Cc2c[nH]c3ccccc23)NC(C)=O)o1 (configuration not stated)	-2	-1.3	-20	5	-3%

Retrieved one by one from the list above:
SMILES	YopH PTP inh	RecA splice inh	Mtb bLac sens	Arbovirus inh	Mtb growth	others
FC(F)(F)c1ccc(CN2C[C@@H]3C(c4ccccc4)C4(c5ccccc5)CC3(C4)[C@H]2c2ccccc2)cc1 (some centres not stated)	.	6.8	.	.	-13%
O=C(CSc1nnc(CNC(=O)c2cccs2)o1)NC1CCCCC1	-5	0.1	-9	-5	-8%
CCOC(=O)c1ccc(CNC(=O)C(Cc2c[nH]c3ccccc23)NC(C)=O)o1 (configuration not stated)	-2	-1.3	-20	5	-3%
O=C(O)CC1SC(=Nc2ccc(O)cc2)NC1=O (configuration not stated)	.	-4.5	4	22	-2%
Cc1ccc(Cl)cc1NC(=O)CSC(N)=O	7	-1.2	-13	6	-9%

The listing picks up; the 2 compounds before the break are reprinted first.
SMILES	YopH PTP inh	RecA splice inh	Mtb bLac sens	Arbovirus inh	Mtb growth	others
Cc1cc(C)cc(NC(=S)N(Cc2cccc(Br)c2)CC2CCC(C(=O)O)CC2)c1 (configuration not stated)	.	-0.3	9	15	-1%
CCOC(=O)c1ccc(CNC(=O)C(Cc2c[nH]c3ccccc23)NC(C)=O)o1 (configuration not stated)	-2	-1.3	-20	5	-3%
O=C(Nc1ccccc1N1CCCC1)c1ccc(F)c(S(=O)(=O)N2CCOCC2)c1	.	-1.9	1	.	.
C=CCNC(=O)CC(=O)N/N=C/c1ccc(C(=O)OC)cc1	-3	-0.1	-7	0	0%
CCN(CC)c1ccc(NC(=O)c2ccc(NC(=O)C3CCCO3)cc2)c(C)c1 (configuration not stated)	-28	.	-1	4	-2%	Arbovirus inh repeat=1
CCCCNC(=O)C1CCCN1C(=O)Nc1ccccc1 (configuration not stated)	-5	-0.2	-6	4	-3%
Cc1c(C(=O)N/N=C/c2ccc(-c3ccccc3[N+](=O)[O-])o2)sc(N)c1C#N	-13	2.8	4	-6	-3%
NNC(=O)c1nnn(-c2nonc2N)c1CN1CCc2ccccc2C1	.	1.7	0	2	1%
Fc1ccc(-c2nnc3ccc(N4CCc5ccccc5C4)nn23)cc1	8	3.6	81	15	24%	Arbovirus inh repeat=5
Cc1ccc(OCC(=O)Nc2ccc(-c3nnc(-c4ccco4)o3)cc2)cc1	4	-0.7	8	0	11%
COc1ccccc1CNC(=O)c1cc2ccccc2oc1=O	.	-1.8	-11	.	.
O=C(c1ccco1)N1CCN(S(=O)(=O)c2cccs2)CC1	11	-0.6	-1	7	-5%
CNC(=O)NC(=O)COc1ccc2oc3c(c2c1)CCCC3	.	-2.1	7	.	.
COc1ccc(/C=N/NC(=O)c2ccc(Cl)c(S(N)(=O)=O)c2)cc1OCC(N)=O	.	-3.0	16	.	-8%
O=C(Nc1ccccc1N1CCOCC1)c1ccc2ccccc2n1	2	-0.7	0	5	1%
CCOc1ccc(CCNC(=O)COC(=O)c2cccc(S(=O)(=O)N3CCCCC3)c2)cc1OCC	.	-0.2	-4	.	.
CCOCCc1nnc(NC(=O)Cc2ccccc2)s1	-17	0.5	-8	0	0%
CC(C)NS(=O)(=O)c1ccc(NC(=O)CCc2ccccc2)cc1	0	0.8	-1	0	4%
Cc1cccc(NC(=S)N2CCCN(c3ncccc3[N+](=O)[O-])CC2)c1	.	0.7	-4	.	2%
Nc1cc(=O)[nH]c(SCc2ccccc2Cl)n1	.	-1.2	0	.	.
Cn1cccc1C(=O)N1CCc2ccccc2C1	.	0.3	-10	.	.
C=CCn1c(Cc2csc(N)n2)nnc1SCc1ccc(C(=O)OC)cc1	-43	2.0	3	2	2%

The last 3 entries of the part above open the next one.
SMILES	YopH PTP inh	RecA splice inh	Mtb bLac sens	Arbovirus inh	Mtb growth	others
Nc1cc(=O)[nH]c(SCc2ccccc2Cl)n1	.	-1.2	0	.	.
Cn1cccc1C(=O)N1CCc2ccccc2C1	.	0.3	-10	.	.
C=CCn1c(Cc2csc(N)n2)nnc1SCc1ccc(C(=O)OC)cc1	-43	2.0	3	2	2%
Cc1c(NC(=O)c2coc(=O)c(Br)c2)c(=O)n(-c2ccccc2)n1C	-32	-3.3	-6	3	-5%
Cc1ccc(S(=O)(=O)NCc2csc(-c3cccs3)n2)cc1	.	0.5	9	.	12%
O=C(Nc1ccccc1N1CCOCC1)c1ccc(Cl)c(S(=O)(=O)NCc2ccco2)c1	.	-2.9	2	-9	-4%
COc1cc(OC)cc(-c2cc3nc(C)c(CCC(=O)O)c(=O)n3[nH]2)c1	-28	-2.6	-2	5	.
CCCCCCCNC(=O)C1(CC2CC(c3cccc(Br)c3)=NO2)CCN(C(=O)OC(C)(C)C)CC1 (configuration not stated)	.	0.8	-7	.	.
COCCN(C(=O)COC(=O)c1cc2ccccc2cc1O)c1c(N)n(Cc2ccccc2)c(=O)[nH]c1=O	.	-2.7	-5	.	.
Fc1ccc(NC(=S)N2CCCC(c3ccccc3)=N2)cc1	.	.	59	.	-1%
CN(C)CCCOc1nc2c(c(=O)n(C)c(=O)n2C)n1C	-9	1.6	2	4	3%
Cc1ccc2cc(CN(CCN3CCOCC3)C(=O)NCc3ccccc3)c(=O)[nH]c2c1C	-10	-6.6	.	-1	5%
CN(Cc1ccccc1)C(=O)CCC1CCN(C(=O)CCC(F)(F)F)CC1	.	0.4	-11	.	.
O=C(O)C[C@H]1c2cc(C(F)(F)F)ccc2S(=O)(=O)N1C1CCCCC1	.	-3.0	-5	.	4%
COc1ccc(NS(=O)(=O)c2cc(C)ccc2OC)cc1OC	-6	1.4	-2	-1	-1%
Cc1cccc(CCNC(=O)CCS(=O)(=O)c2ccc(Br)cc2)c1	.	.	-5	2	0%
Cc1ccc(NC(=O)Cn2nc(C(=O)O)c3ccccc3c2=O)c([N+](=O)[O-])c1	.	-1.3	8	.	.
COC(=O)C1C(O)=CC(=O)CC1C (configuration not stated)	14	-4.9	-6	-3	-4%
CCOC(=O)C1=C(C)OC(N)=C(C#N)C1c1cc(Cl)c(OCC(N)=O)c(OC)c1 (configuration not stated)	-21	-0.1	-15	1	3%
O=C(/C=C/c1cccc([N+](=O)[O-])c1)NC(=S)Nc1cccc(NC(=O)c2ccccc2Cl)c1	-27	0.9	44	-32	19%
CCOCCCNC(=O)c1oc2ccc3c(c2c1C)C(O)CC(C)(C)O3 (configuration not stated)	.	-2.8	-2	.	.
CC(C)c1ccc2oc(=O)cc(CN3CCCCC3)c2c1	.	1.2	7	.	.
Cc1ccc(CS(=O)(=O)CCC(=O)NCCCOC(C)C)cc1	-10	0.2	2	3	-7%
CCOC(=O)CSc1nc2sc3c(c2c(=O)n1-c1ccc(OC)cc1)CCN(C)C3	.	14	19	.	.
C/C=C(/C)C(=O)Nc1cccc(C2=NOC3(C2)C[C@@H](C(N)=O)N(C(=O)/C=C/CC)C3)c1 (some centres not stated)	.	0.6	-10	.	-7%
O=C(O)c1cc(=O)c2c(OCC(O)COc3cccc4oc(C(=O)O)cc(=O)c34)cccc2o1	-47	.	.	4	.
CCN(CC)CCCNc1nc(-c2ccccc2)nc2ccccc12	-30	4.4	6	-30	8%
CCCC1(C)NC(=O)c2ccccc2O1 (configuration not stated)	.	1.2	1	-3	0%
c1ccc(Nc2nnc(-c3cccc4ccccc34)o2)cc1	.	0.6	0	.	-8%
O=C(NCCC(=O)N1CCOCCOCCOCCOCC1)OCc1ccccc1	.	-4.9	-5	.	-3%
CNC(=O)c1[nH]cnc1C(=O)N[C@@H](C)C(=O)OC(C)(C)C	.	-1.9	1	3	4%
O=[N+]([O-])c1cc([N+](=O)[O-])c(Oc2c(F)ccc(F)c2F)cc1NN1CCCCC1	.	6.9	2	.	.
CN1CCN(c2ccc([N+](=O)[O-])cc2Cl)CC1	.	-6.8	1	-10	-3%
Cc1ccn(C(=O)c2ccc(NC(=O)C3CC3)cc2)n1	.	3.6	3	3	-2%
CCOc1ccccc1NC(=O)c1cc(C(=O)c2cc(Br)ccc2O)coc1=N	.	-1.1	5	1	32%
Nc1nnc(CC(=O)N/N=C/c2ccc(-c3ccc(F)cc3)o2)s1	.	3.0	92	.	?
CCOC(=O)c1cnc2c(C)c(Cl)ccc2c1Nc1ccc(S(=O)(=O)Nc2ncccn2)cc1	-16	-1.6	5	4	-5%
COc1ccc(-c2csc3nc(C)n(-n4cccc4)c(=O)c23)cc1	-34	2.7	-12	.	-7%
COc1cc(/C=C/C(=O)OCC(=O)N2CCCCCC2)ccc1OCC#N	.	-1.4	7	-2	0%
Cc1sc2ncnc(SCC(=O)NC3CC3)c2c1C	-20	-2.5	?	-1	-9%
O=S1(=O)CC(N2CCCCC2)C(N2CCCCC2)C1 (configuration not stated)	-13	-1.9	-1	-5	-8%
CN(C)S(=O)(=O)c1ccc(-c2cn3ccccc3n2)cc1	-27	1.6	2	1	-4%
Cc1c(NC(=O)C(C)OC(=O)/C=C/c2ccc3c(c2)OCO3)c(=O)n(-c2ccccc2)n1C (configuration not stated)	.	-1.3	-10	6	-2%
Cc1cccc(NC(=S)N/N=C/c2ccc(Cl)c([N+](=O)[O-])c2)c1	-7	-0.2	-6	12	-8%
Fc1ccc(NC2=NCCS2)cc1Cl	2	1.2	28	3	7%
NC(=O)c1c(NC(=O)c2ccccc2)sc2c1CCC2	.	-2.2	1	.	.
CCC(=O)Nc1ccccc1	.	-0.6	-5	.	.
Cc1nn(C)c(C)c1S(=O)(=O)N(CC(=O)N1CCc2ccccc21)c1ccc(C(C)C)cc1	-39	-0.2	4	-19	6%
COc1cccc(C(=O)N2CCC(C(=O)NCc3ccco3)CC2)c1	.	-1.1	1	.	.
O=C(Nc1ccc(N2CCOCC2)cc1)c1cn2ccccc2n1	-31	-1.2	3	-5	.
OCC1(Cc2ccccc2C(F)(F)F)CCN(Cc2cccc3cnccc23)CC1	.	1.8	-5	-4	6%
CCCC(=O)Nc1ccc(C(=O)N/N=C/c2ccc[nH]2)cc1	-21	-1.3	-3	-7	3%
CC(C)C[C@H](NC(=O)c1nc[nH]c1C(=O)NCCCCCNC(=O)OC(C)(C)C)C(=O)OC(C)(C)C	.	-2.4	9	-18	5%

This is a subset; rates above refer to the full screens.
